MT1-MMP act inh: blocks activation of human MT1-MMP | P50281 | HT1080 RFP-PRO-GFP cells, GFP/RFP ratio fluorescence, overnight; percent of plate control window, DMSO zero | GFP/RFP ratio change, % at 20 µM | actives 0.061% (n = 360,000) | AID 651647;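 active means GFP/RFP ratio change of at least 30% with cell ATP level not reduced by more than half and red fluorescence within 50% of control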; further: strong numbers were not always called active
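Assay system: HT1080 RFP-PRO-GFP cells. Benchmarks: DMSO vehicle wells and RFP-L50D-GFP reporter cell wells. Times: overnight cell settling, then overnight compound exposure, 37 °C, 5% CO2. Compound: 20 µM single dose, 1% DMSO. Read-out basis: GFP/RFP fluorescence ratio.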
Rce1 inh: inhibitors of yeast Ras-converting enzyme; Q03530; yeast membranes, quenched prenylated peptide cleavage fluorescence; calls only; actives 0.27% (n = 290,000); AID 2563;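 active means fall in fluorescence gain of 50% or more versus controls, with final raw signal at or below 3038400; inconclusive means same 50% fall but final raw signal above 3038400; inactive means fall in fluorescence gain under 50%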;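 further: plate controls were neutral control wells for no effect and wells lacking membranes for full effect; tested at 10 µM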
eIF4H FP inh: inhibitors of RNA binding by human eIF4H. AID 2012. Q15056. eIF4H fluorescence polarization binding assay. inhibition, % at 35 µM. actives 0.94% (n = 290,000);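 active means 50% or more with normal probe brightness, or confirmed in later tests; inconclusive means above 50% with abnormal brightness, or retests that disagree; inactive means below 50% or failed in later tests; about a fifth of its hits are not listed in these tables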;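 further: calls also rest on retests at 20 µM and on dose response follow-up; 0% = protein and probe with vehicle and 100% = probe without protein; strong numbers were not always called active; many hits fall short of the cut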
Env fusion inh: HIV envelope-mediated fusion inhibition. HeLa-JRFL Env/CEM21 cell fusion, luciferase. inhibition, % at 12.3 µM. actives 1.1% (n = 360,000);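 active means mean replicate inhibition score of at least 50 and every replicate individually at or above 50; inconclusive means only one of the two criteria met; inactive means mean below 50 and not all replicates reaching 50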;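 further: 0% = plate neutral controls and 100% = maraviroc near 300 nM; one replicate is shown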
CSC inhib: blocks cancer stem cells. cancer stem cell-like cells viability, luminescence. AID 2717. inhibition, % at 7.5 µM. actives 1.1% (n = 300,000);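 active means mean at 75% or more and at least half the replicates too; inconclusive means mean and replicates disagree; tested in HMLE shEcad cells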;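 further: 0% = median of negative and 100% = median of positive control wells; the first replicate is given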
UUG fidelity: modulators of start codon recognition fidelity in yeast | S. cerevisiae UUG-firefly luciferase reporter, luminescence/redox ratio | activity score, % at 18.7 µM | actives 0.13% (n = 350,000);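 active means replicate mean at a twofold rise or more, about +100% in these data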;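 further: firefly luciferase made from a UUG start codon reports start codon fidelity; reporter light over untreated wells divided by growth signal over untreated wells; some hits fall short of that in this replicate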
PABP FP inh: blocks human PABP binding to poly(A) RNA; fluorescence polarization; P11940; actives 1% (n = 290,000); inhibition, % at 35 µM;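 active means 50% or more with normal probe brightness, or confirmed in later tests; inconclusive means above 50% with abnormal brightness, or retests that disagree; inactive means below 50% or failed in later tests; about a fifth of its hits are not listed in these tables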;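 further: calls also rest on retests at 20 µM and on dose response follow-up; controls were probe without protein and protein plus probe with vehicle; some compounds called inactive have numbers as strong as hits; many hits fall short of the cut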
Target sequence (P11940 whole entry, looked up): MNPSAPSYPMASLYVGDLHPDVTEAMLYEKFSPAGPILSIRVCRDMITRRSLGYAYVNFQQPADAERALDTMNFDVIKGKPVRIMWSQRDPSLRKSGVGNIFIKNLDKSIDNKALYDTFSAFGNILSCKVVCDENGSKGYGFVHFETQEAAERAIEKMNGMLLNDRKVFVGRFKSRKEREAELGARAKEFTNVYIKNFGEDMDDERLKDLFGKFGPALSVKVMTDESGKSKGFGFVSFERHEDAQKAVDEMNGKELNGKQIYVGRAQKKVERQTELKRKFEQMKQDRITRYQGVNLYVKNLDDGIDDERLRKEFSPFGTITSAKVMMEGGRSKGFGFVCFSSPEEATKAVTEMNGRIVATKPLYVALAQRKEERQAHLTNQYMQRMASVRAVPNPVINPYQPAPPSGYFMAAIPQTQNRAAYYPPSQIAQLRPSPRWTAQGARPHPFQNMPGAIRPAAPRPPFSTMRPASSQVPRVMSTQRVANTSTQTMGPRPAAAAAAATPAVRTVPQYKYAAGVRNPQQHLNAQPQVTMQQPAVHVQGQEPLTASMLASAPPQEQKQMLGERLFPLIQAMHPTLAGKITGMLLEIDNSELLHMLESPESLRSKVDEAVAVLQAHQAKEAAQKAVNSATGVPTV
MT1-MMP act inh RFP: recorded beside MT1-MMP act inh, whose call it bears; RFP signal change, %; measured here: RFP expression control read;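 0 = vehicle wells; hits needed this value within 50% of zero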
* = called active by the depositor; i = inactive; ? = inconclusive; · = not tested or not shown.

1: OCCN(CCO)Cc1csc2ccccc12
2: CCC(C)[C@@H](CN(N=O)[C@@H](Cc1ccccc1)CN(C)N=O)N(CCc1ccccc1)N=O (stereo partly drawn)
3: COP(=O)(OC)c1nc(-c2cccc3ccccc23)oc1N1CCCCC1
4: COc1cccc(NS(=O)(=O)c2ccc3c(c2)N(C(C)=O)CCS3)c1
5: COc1ccc(C(=O)N/N=C/c2ccc(N3CCOCC3)o2)cc1OC
6: O=C(CSc1ccc(Cl)cc1)NC(=O)NC1CCCC1
assay / entry	1	2	3	4	5	6
MT1-MMP act inh	3	-5	-2	0	1	4
MT1-MMP act inh RFP	6	-4	-3	-16	4	0
Rce1 inh	i	i	?	i	i	·
eIF4H FP inh	5	-13	-9	5	-8	·
Env fusion inh	·	·	11	5	2	2
CSC inhib	4	12	-11	-3	-27	·
UUG fidelity	6	-8	-3	-7	·	13
PABP FP inh	-8	-4	3	-1	-8	·

7: COc1ccc(NC(=O)COC(=O)C2=COCCO2)cc1OC
8: CCCCNC(=O)/C(C#N)=C/c1ccc(-c2ccc(S(=O)(=O)N3CCOCC3)cc2)o1
9: COc1ccc(-c2nnc(SCC(=O)N3CCOCC3)o2)cc1OC
10: CCc1ccc(/C=C2\SC(=S)N(CCC(=O)NC3=NCCS3)C2=O)cc1
11: O=C(Nc1nc2ccccc2s1)C1=NN(c2ccccc2)C(=O)CC1
12: COc1ccc(NC(=O)COC(=O)c2c(NC(C)=O)sc(C)c2C)cc1
assay / entry	7	8	9	10	11	12
MT1-MMP act inh	-5	0	-1	·	2	-7
MT1-MMP act inh RFP	-2	-5	0	·	-6	-1
Rce1 inh	i	i	i	i	i	·
eIF4H FP inh	4	-4	-8	8	-1	·
Env fusion inh	-16	-2	-1	52	-8	-31
CSC inhib	-3	5	·	8	-9	·
UUG fidelity	·	-3	-17	·	·	1
PABP FP inh	-11	4	-1	-6	-6	·

13: O=C(NC1=NCCS1)c1cc(-c2ccc(-c3ccccc3)cc2)nc2ccccc12
14: CCCCN(C(=O)CCCc1nc2ccccc2s1)c1c(N)n(CCCC)c(=O)[nH]c1=O
15: Fc1ccccc1CSc1nnnn1-c1ccc2c(c1)OCO2
16: Cn1c2ccccc2c2cnn(CC(=O)Nc3cccc(F)c3)c(=O)c21
17: CCOC(=O)N1CCN(C(=O)CCc2cc(OC)c(OC)c(OC)c2)CC1
18: CCN(CC)S(=O)(=O)c1ccc(C)c(NC(=O)COC(=O)[C@@H]2CCCN2C(=O)c2cccs2)c1
assay / entry	13	14	15	16	17	18
MT1-MMP act inh	8	-1	0	-1	1	3
MT1-MMP act inh RFP	7	0	-2	-1	-1	3
Rce1 inh	i	i	i	i	i	i
eIF4H FP inh	-7	-5	-3	-1	14	3
Env fusion inh	-120	-4	·	1	·	-4
CSC inhib	32	3	-9	1	-11	3
UUG fidelity	·	-10	-33	3	-19	·
PABP FP inh	4	-1	-2	-7	8	7

19: CC1CCN(S(=O)(=O)c2cnc(Cl)c(Br)c2)CC1
20: CC1CCN(S(=O)(=O)c2cc3c4c(c2)C(C)C(=O)N4CCC3)CC1 (stereo not drawn)
21: Cc1cccc(NC(=O)c2ccc(C)c(S(=O)(=O)N3CCOCC3)c2)n1
22: O=C(NCCc1ccccn1)c1ccc(NS(=O)(=O)c2ccc(F)cc2)cc1
23: O=C(c1cccnc1)N1CCN(S(=O)(=O)c2cccc(Cl)c2)CC1
24: C=CCSc1nc(C)cc2c1C(=O)OC2
assay / entry	19	20	21	22	23	24
MT1-MMP act inh	-5	1	3	1	-3	3
MT1-MMP act inh RFP	-1	2	1	-2	1	3
Rce1 inh	i	i	·	i	i	·
eIF4H FP inh	0	·	·	5	-1	3
Env fusion inh	-3	4	-10	3	1	11
CSC inhib	7	-5	·	·	8	-2
UUG fidelity	·	-9	-15	-7	-20	-6
PABP FP inh	4	·	·	?	-4	0

25: CC(C)CC(=O)Nc1nnc(SCC(=O)NC2CCCCC2)s1
26: CC1(C)CC(NC(=O)C(=O)NCCc2ccc(Cl)cc2)CC(C)(C)N1
27: O=C(NC1CCCCC1)c1cc2c(cc1Cl)N1CCCCCC1=NS2(=O)=O
28: Cc1cccc(NC(=O)Nc2ccccc2[N+](=O)[O-])n1
29: C/C(N)=C(/C#N)C(=O)COC(=O)c1ccc(C)c(S(=O)(=O)N2CCCCC2)c1
30: CCOc1cccc(C(=O)N/N=C/c2coc3ccccc3c2=O)c1
assay / entry	25	26	27	28	29	30
MT1-MMP act inh	-1	3	-2	-2	3	-8
MT1-MMP act inh RFP	1	5	-1	-5	-5	-3
Rce1 inh	i	i	·	i	i	i
eIF4H FP inh	4	7	·	-12	11	-6
Env fusion inh	-1	-4	-19	17	41	5
CSC inhib	-14	11	·	-8	-3	-1
UUG fidelity	-16	·	-1	-15	0	6
PABP FP inh	-3	2	·	4	8	10

31: COc1ccc(C(CC(=O)c2ccccc2)C2CCCCC2=O)cc1 (stereo not drawn)
32: Cc1cccc(NC(=O)c2cc(NC(=O)c3ccco3)ccc2N2CCCCC2)c1
33: Cc1cc(C)n2nc(C(=O)N3CCCC(Nc4ccc(F)c(F)c4)C3)cc2n1 (stereo not drawn)
34: COc1ccc(NC(=O)COC(=O)c2ccc(NS(=O)(=O)/C=C/c3ccccc3)cc2)cc1
35: CCCC#CCN1CCN(C23CC4CC(CC(C4)C2)C3)CC1
36: CC(C)c1ccc(NC2CCCN(C(=O)c3cccs3)C2)cc1 (stereo not drawn)
assay / entry	31	32	33	34	35	36
MT1-MMP act inh	-6	1	0	4	2	-1
MT1-MMP act inh RFP	-4	1	3	5	4	-5
Rce1 inh	i	i	i	i	i	i
eIF4H FP inh	-9	2	-8	-14	0	-17
Env fusion inh	-13	·	·	19	5	-4
CSC inhib	-3	-11	-3	-2	29	21
UUG fidelity	-2	-12	5	·	-13	-4
PABP FP inh	-9	8	20	-4	4	3

37: OCCCn1c(C2CCCN2c2nc(-c3ccc(Cl)cc3)cs2)nc2cc(Cl)c(Cl)cc21 (stereo not drawn)
38: Cc1c(Cl)cccc1NC(=O)NC1CCCCC1
39: C=CCCC(=O)NC1CC(C)(C)Cc2c1cnn2-c1cccc(F)c1 (stereo not drawn)
40: CC(=O)NCc1nnc2c3ccccc3c(-c3ccccc3)nn12
41: CCOC(=O)c1cc2sccc2n1CC(=O)Nc1ccc2c(c1)OCCO2
42: CCOC(=O)C1(CCOc2ccccc2)CCN(Cc2cnc(SC)nc2)CC1
assay / entry	37	38	39	40	41	42
MT1-MMP act inh	4	1	-2	3	1	-8
MT1-MMP act inh RFP	-5	0	-3	3	3	-17
Rce1 inh	i	i	i	i	i	i
eIF4H FP inh	·	6	-3	0	0	5
Env fusion inh	-3	0	13	-28	·	8
CSC inhib	11	·	-11	-1	-11	9
UUG fidelity	-22	-17	-2	2	2	-1
PABP FP inh	·	0	14	-13	1	0

43: CN1CCN(S(=O)(=O)c2csc(C(N)=O)c2)CC1
44: O=C(CCc1nnc2ccc(NCc3ccccc3Cl)nn12)NCC1CCN(C2CCCC2)C1 (stereo not drawn)
45: Cc1ccc(C(C)C)c(OCCCN(C)Cc2ccccc2)c1
46: CCN(CC(=O)N(CC(C)C)c1c(N)n(CC(C)C)c(=O)[nH]c1=O)Cc1nc2ccccc2c(=O)[nH]1
47: CC(C)Oc1nnnn1-c1ccccc1
48: COc1cccc(/C=C/C(=C2\C(=O)N(c3ccccc3)N=C2C)c2ccc(Br)cc2)c1OC
assay / entry	43	44	45	46	47	48
MT1-MMP act inh	1	-5	-4	-4	1	-3
MT1-MMP act inh RFP	3	0	0	2	7	-5
Rce1 inh	i	i	i	i	i	·
eIF4H FP inh	-9	14	10	0	0	·
Env fusion inh	-25	2	14	-2	·	-47
CSC inhib	-9	3	9	-12	-4	·
UUG fidelity	-27	-13	·	·	·	-31
PABP FP inh	-2	-5	11	-2	10	·

49: O=S(=O)(NCc1ccncc1)c1ccc(Br)s1
50: O=C(O)c1ccc2c(=O)n(-c3ccccc3F)c(=S)[nH]c2c1
51: Cc1ccc(Nc2nc(N)nc(CSc3nnc(C)s3)n2)cc1
52: Cc1ccc(-c2noc(CCC(=O)NC3CCCc4ccccc43)n2)cc1 (stereo not drawn)
53: Cc1ccc(C(=O)NCc2ccco2)c(C)c1
54: COc1cccc(NC(=O)C(=O)NCCC2CCCCN2S(=O)(=O)c2cccs2)c1 (stereo not drawn)
55: COc1ccccc1CNC(=O)CCN1C(=O)COc2ccc(C)cc21
56: CCOC(=O)Cc1nnc(NC(=O)CSc2nc3ccccc3[nH]2)s1
assay / entry	49	50	51	52	53	54	55	56
MT1-MMP act inh	-1	0	0	-2	0	-1	2	-1
MT1-MMP act inh RFP	-29	0	-2	-4	0	-5	4	5
Rce1 inh	i	i	i	i	i	i	i	i
eIF4H FP inh	-10	-12	-12	-2	-1	·	-6	0
Env fusion inh	·	1	-48	·	4	-32	35	-49
CSC inhib	5	-14	-11	5	-6	1	-17	-8
UUG fidelity	-20	·	·	-12	-11	·	1	·
PABP FP inh	-8	-18	-6	1	6	·	-7	-7

Structures above that contain a Cl atom (eight):
6: O=C(CSc1ccc(Cl)cc1)NC(=O)NC1CCCC1
19: CC1CCN(S(=O)(=O)c2cnc(Cl)c(Br)c2)CC1
23: O=C(c1cccnc1)N1CCN(S(=O)(=O)c2cccc(Cl)c2)CC1
26: CC1(C)CC(NC(=O)C(=O)NCCc2ccc(Cl)cc2)CC(C)(C)N1
27: O=C(NC1CCCCC1)c1cc2c(cc1Cl)N1CCCCCC1=NS2(=O)=O
37: OCCCn1c(C2CCCN2c2nc(-c3ccc(Cl)cc3)cs2)nc2cc(Cl)c(Cl)cc21 (stereo not drawn)
38: Cc1c(Cl)cccc1NC(=O)NC1CCCCC1
44: O=C(CCc1nnc2ccc(NCc3ccccc3Cl)nn12)NCC1CCN(C2CCCC2)C1 (stereo not drawn)
assay / entry	6	19	23	26	27	37	38	44
MT1-MMP act inh	4	-5	-3	3	-2	4	1	-5
MT1-MMP act inh RFP	0	-1	1	5	-1	-5	0	0
Rce1 inh	·	i	i	i	·	i	i	i
eIF4H FP inh	·	0	-1	7	·	·	6	14
Env fusion inh	2	-3	1	-4	-19	-3	0	2
CSC inhib	·	7	8	11	·	11	·	3
UUG fidelity	13	·	-20	·	-1	-22	-17	-13
PABP FP inh	·	4	-4	2	·	·	0	-5

Screening data from PubChem BioAssay.

The list is partial (hit frequency here may not be typical).
